miR-21 FLuc: miR-21 reporter, rising signal; AID 2288; Potency, µM (series often up to 38.3 µM), inactives show top-dose reporter change, positive = more light; HeLa miR-21 FLuc reporter, luciferase, 48 h; 340,000 tested, under 10 active; active = well fitted rising curve with a large enough effect; inconclusive = small, poorly fitted or top-dose-only effect; inactive = no such curve, though single readings can be large or run the other way;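 also: % of control where 0% means no effect; miR-21 action dims this reporter so a rising signal means less miR-21 action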
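Compounds were titrated across several concentrations (up to approximately 40 uM) and incubated 48 hours with HeLa miR-21-FLuc reporter cells (miR-21 target sequence downstream of FLuc, endogenous miR-21). Readout was firefly luciferase luminescence after lytic detection reagent.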
* = called active by the depositor; ? = inconclusive.

miR-21 FLuc	molecule
11.6%	Cc1cccc(Cn2c(CN3CCC(C(=O)NCc4ccccc4Cl)CC3)cc3ccccc32)c1
2.6%	CCC(=O)N1CCc2cc(S(=O)(=O)N3CCN(c4ccccc4F)CC3)ccc21
14.8%	CCC1CN(C(=O)Nc2cc(OC)cc(OC)c2)c2ccccc2S1 (stereo not drawn)
-36.8%	O=C(Nc1ccc(Cl)c(Cl)c1)N(Cc1c[nH]c2ccccc12)C1CCCCC1
-0.2%	CC(=O)c1ccc(NC(=O)CN2C(=O)CN(C)C(=O)c3ccccc32)cc1
-2.5%	Cc1ccc(-n2ncc(C(=O)N3CCN(Cc4ccccc4)CC3)c2C2CCN(C(=O)OC(C)(C)C)CC2)c(C)c1
12.2%	COC(=O)CC1Oc2ccccc2-n2cc(-c3ccccc3)nc21 (stereo not drawn)
-1.1%	COc1ccc(C2CC(=O)Nc3c2c(=O)nc2c(C)cccn32)cc1 (stereo not drawn)
18.3%	O=C(c1ccccc1)N1c2ncnn2C2(CCCCC2)[C@@H]2CCCC[C@@H]21
4.6%	O=C(NCCc1ccc(Cl)cc1)C(=O)NCC(c1ccco1)S(=O)(=O)c1cccs1 (stereo not drawn)
0.3%	CCOc1ccccc1NC(=O)C1CCN(S(=O)(=O)c2c(C)noc2/C=C/c2ccc(C)cc2)CC1
-32.7%	Cc1nc2ccccc2c(=O)n1-c1ccc(NC(=O)c2ccc([N+](=O)[O-])cc2)cc1
-11.2%	CCc1ccccc1Nc1nc2ccccc2n2cnnc12
7.4%	O=C(NCc1ccccc1)c1cccc(NC(=O)N2CCSc3ncccc32)c1
-7.5%	CCOc1ccc(NC(=O)c2cnc3sc(N4CCOCC4)nn3c2=O)cc1

Sorted by molecular weight (lowest first): some entries from above.
miR-21 FLuc	molecule
-11.2%	CCc1ccccc1Nc1nc2ccccc2n2cnnc12
-1.1%	COc1ccc(C2CC(=O)Nc3c2c(=O)nc2c(C)cccn32)cc1 (stereo not drawn)
-7.5%	CCOc1ccc(NC(=O)c2cnc3sc(N4CCOCC4)nn3c2=O)cc1
0.3%	CCOc1ccccc1NC(=O)C1CCN(S(=O)(=O)c2c(C)noc2/C=C/c2ccc(C)cc2)CC1

(list continues)
miR-21 FLuc	molecule
-8.7%	CCN(CC)c1cc2c(cc1F)c(=O)c(S(=O)(=O)c1ccc(OC)cc1)cn2CC
23.9%	Cc1n[nH]c(C)c1S(=O)(=O)N1CCCC(C(=O)Nc2ccc(Cl)cc2)C1 (stereo not drawn)
-0.1%	Fc1ccccc1C(NCCc1ccc(Cl)cc1)c1nnc(-c2ccccc2)o1 (stereo not drawn)
?	CCCCCN1C(C(=O)c2ccccc2)=C(OC(=O)CC)c2ccccc2S1(=O)=O
-8.7%	Cc1cc(=O)n(Cc2ccccc2)c2c1c(C)nn2C
-0.7%	CCC1CCCCN1S(=O)(=O)c1ccc(NC(=O)c2cc(=O)c3ccccc3o2)cc1 (stereo not drawn)
7.8%	Cc1ccc(C)c(N2CCN(S(=O)(=O)c3ccc(C(=O)N(C)C)s3)CC2)c1
-4.2%	Cc1ccc2c(=O)cc(C(=O)Nc3ccc(S(=O)(=O)N(C)Cc4ccccc4)cc3)oc2c1
-11.8%	Cc1ccccc1Cn1cc(NC(=O)c2cc(-c3ccc(Cl)cc3)on2)cn1
-12.3%	CC(=O)N1CCc2c(sc3c2c(=O)n(-c2ccccc2)c(=O)n3CC(=O)c2ccc(F)cc2)C1
3.3%	CC(C)OC(=O)/C(C#N)=C/c1ccc(-c2ccc(Cl)c(Cl)c2)o1
1.3%	Cc1ccc(C(=O)NCC(c2cccs2)S(=O)(=O)c2ccccc2)cc1C (stereo not drawn)
-11.3%	Cc1ccc(Nc2cc(C)c(C#N)c3nc4ccccc4n23)c(C)c1
3.3%	O=C(Cn1c(=O)nc(-c2ccccc2)c2ccccc21)NCc1ccccc1Cl
?	O=S(=O)(c1ccc(F)cc1)N(CC(O)Cn1c2ccccc2c2ccccc21)c1ccccc1 (stereo not drawn)
7.9%	COc1ccc(S(=O)(=O)N(CCc2ccccc2)CC(=O)Nc2cccc(OC)c2)cc1
-1.9%	Cc1ccc(C)c(Nc2nnc(-n3nc(C)cc3C)c3ccccc23)c1
-4.0%	Cc1ccc(OCCCn2c(CCNC(=O)C3CCCCC3)nc3ccccc32)c(C)c1
-1.1%	COc1cccc(C(c2sc3nc(-c4ccco4)nn3c2O)N2CCN(c3ccccc3F)CC2)c1 (stereo not drawn)
-10.4%	COc1cccc(/C=C/c2nc(C#N)c(N(C)Cc3ccccc3)o2)c1
-1.2%	COc1cccc(N2CC(NC(=O)Cc3cccs3)CC2=O)c1 (stereo not drawn)
-1.5%	Cc1ccc(/C=C/C(=O)Nc2ccc3nc(N4CCC(C)CC4)cc(C)c3c2)cc1
2.7%	Cc1ccc(NC(=O)C2CCC(CNS(=O)(=O)c3cccc4nsnc34)CC2)c(C)c1 (stereo not drawn)
2.3%	COc1ccccc1CCNC(=O)Cc1c(C)c2c(cc(C)c3c(C)coc32)oc1=O
-1.6%	COC(=O)c1ccccc1NC(=O)N1CCC(n2c(C)nc3cccnc32)CC1
?	O=C(NCCn1cc(SCc2ccc(Cl)cc2)c2ccccc21)c1cccs1
0.9%	Cc1ccc(CNC(=O)c2cc3c(s2)-c2ccc(Cl)cc2SC3)cc1
-0.7%	Cc1ccccc1NC(=O)CC(NCc1cccnc1)C(=O)O (stereo not drawn)
25.4%	COc1ccccc1C(=O)N1CCC(c2c[nH]c3ccccc23)(c2c[nH]c3ccccc23)CC1
6.4%	COc1cc(NC(=O)CSc2nc(-c3ccco3)cc(C(F)(F)F)n2)cc(OC)c1OC

Quoted at random: 2 entries already listed, in no set order.
miR-21 FLuc	molecule
25.4%	COc1ccccc1C(=O)N1CCC(c2c[nH]c3ccccc23)(c2c[nH]c3ccccc23)CC1
-11.2%	CCc1ccccc1Nc1nc2ccccc2n2cnnc12

The results go on.
miR-21 FLuc	molecule
20.1%	CC(C)(C)c1ccc(-c2nc(S(=O)(=O)c3ccccc3)c(N3CCOCC3)o2)cc1
7.9%	CCc1ccc(NC(=O)CSc2nnc(-c3cc4occc4n3C)n2-c2ccccc2C)cc1
1.4%	O=C(Nc1cccc(F)c1)[C@@H](c1ccccc1)N1Cc2ccccc2C1=O
-1.6%	Cc1ccc(C(=O)NCC(=O)OCc2cc(=O)n3c(C)csc3n2)cc1
4.5%	O=C(c1ccc2c(c1)N(Cc1ccc(F)cc1)C(=O)c1ccccc1S2=O)N1CCOCC1 (stereo not drawn)
24.4%	Cc1cccc(OCCCn2c(CCNC(=O)C3CCCCC3)nc3ccccc32)c1
10.5%	Cc1cccc(C(=O)N2c3nc(-c4ccco4)nn3C3(CCCCC3)[C@@H]3CCCC[C@@H]32)c1
18.8%	CCn1c(C(=O)NCc2ccc(F)cc2)cc2oc3ccccc3c21
-0.6%	Cc1ccc2c(=O)cc(C(=O)Nc3sc4c(c3C(=O)NCC3CCCO3)CCCC4)oc2c1C (stereo not drawn)
?	Cc1oc2ccc(O)c(CN(C)Cc3ccccc3)c2c1C(=O)Nc1cccc(C(F)(F)F)c1
5.6%	COc1ccccc1N1CCN(C(CNC(=O)C(=O)NCCCN(C)C)c2cccnc2)CC1 (stereo not drawn)
-8.2%	O=C(O)c1cc(-c2ccccc2)nn1Cc1ccccc1
-11.9%	CCC(=O)Nc1cc(-c2cn3cccnc3n2)ccc1OC
4.8%	COc1ccccc1NC(=O)C1=C(C)Nc2nnnn2C1c1ccc(C(F)(F)F)cc1 (stereo not drawn)
4.0%	COc1ccc(-c2ccc(NS(=O)(=O)c3cc(C)c(C)cc3C)cc2)nn1
-4.3%	COc1ccc(CNC(=O)c2ccc(NC(=O)N3CCSc4ncccc43)cc2)c(OC)c1
-26.5%	Cc1cccc(-c2cc(NC(=O)C(C)(C)C)n(-c3ccccc3)n2)c1
2.9%	Cc1ccc(NS(=O)(=O)c2ccc3[nH]c4c(c3c2)CCCCCC4)cc1
20.6%	O=C(NCCCN1CCN(c2ccccc2F)CC1)c1nnc(Cc2ccc(Cl)cc2Cl)o1
19.7%	CCOC(=O)N1CCc2c(sc(NCc3ccc(N(C)C)cc3)c2C(=O)Nc2ccccc2OCC)C1
20.3%	CCOC(=O)c1cc(C)n(CC2CCC(C(=O)Nc3ccc(C)cc3)CC2)c1C (stereo not drawn)
25.1%	CCN(c1ccc(Cl)cc1)S(=O)(=O)c1nnc(NC(=O)c2ccccc2C)s1
16.3%	COc1ccccc1CNC(=O)CSc1nnc(C)c2c(C)n(-c3ccccc3)nc12
13.9%	Cc1ccccc1NC(=O)c1c(C)oc2ccc(O)c(CN3CCCCCC3)c12
-0.1%	COc1ccc(OC)c(CCNC(=O)C(C)n2c(C)c3cnn(-c4ccccc4)c(=O)c3c2C)c1 (stereo not drawn)
0.4%	COc1ccc(N2CCN(C(=O)c3ccc4c(c3)NC(=O)C(CSCc3c(F)cccc3Cl)N4)CC2)cc1 (stereo not drawn)
-15.9%	CCc1ccc(NC(=O)c2sc3nc(C)cc(C)c3c2NC(=O)c2ccccc2)cc1
-14.2%	CCc1ccc2oc(-c3ccc(NC(=O)c4cc5ccccc5o4)cc3)nc2c1
-0.6%	CC(=O)Nc1ccccc1-c1nc2ccccc2n(CC(=O)Nc2cccc(C(F)(F)F)c2)c1=O
3.4%	CCN(C(=O)Cn1c(=O)oc2cc(S(=O)(=O)N3CCCCC3)ccc21)c1ccccc1

Some of the entries so far, as a markdown table.
| SMILES | miR-21 FLuc |
| --- | --- |
| CCc1ccc(NC(=O)c2sc3nc(C)cc(C)c3c2NC(=O)c2ccccc2)cc1 | -15.9% |
| CCc1ccc2oc(-c3ccc(NC(=O)c4cc5ccccc5o4)cc3)nc2c1 | -14.2% |

The list continues.
miR-21 FLuc	molecule
-15.6%	CCOC(=O)c1ccccc1NC(=O)c1sc2ccccc2c1Cl
17.3%	O=C(NCCCN1CCN(c2ccc(F)cc2)CC1)C1COc2ccccc2C1 (stereo not drawn)
-1.6%	COc1ccc(NC(=O)C(C)N2Cc3ccccc3C2=O)cc1OC (stereo not drawn)
14.9%	CCOc1ccc(C(=O)Nc2ccc(-n3nncc3-c3ccc(OC)cc3)cc2)cc1
-1.4%	O=S(=O)(c1ccc(-n2cnnn2)cc1)N1CCN(c2cccc(C(F)(F)F)c2)CC1
-4.9%	COc1ccc(NC(=O)CSc2nc3ccccc3nc2Cc2ccc(C)cc2)cc1Cl
-4.4%	CC(C)CC(NC(=O)C1CCC(C)CC1)C(=O)OCC(=O)c1ccc(Cl)cc1 (stereo not drawn)
-4.6%	Cc1cc(C)cc(NC(=O)Nc2ccc3nc(N4CCN(C)CC4)cc(C)c3c2)c1
18.8%	Cc1ccc2c(c1)c1c(c(=O)n(-c3ccccc3C)c(=O)n1Cc1ccccc1F)n2C
10.1%	COc1ccc(-c2nsc(NC(=O)c3oc4ccc(Cl)cc4c3C)n2)cc1
29.5%	COc1ccc2nc3cc(Cl)ccc3c(Nc3cc(CN4CCCC4)c(O)c(CN4CCCC4)c3)c2n1
-3.4%	COc1ccc(CN2COc3ccc4c(-c5ccccc5)cc(=O)oc4c3C2)cc1
-5.0%	COc1cccc(C(=O)Nc2ccc(Cl)c(-c3nc4ccccc4[nH]3)c2)c1
-0.6%	Cc1cccc(NC(=O)CCS(=O)(=O)c2cc(Br)cc3c2N(C(=O)C2CC2)CC3)c1C
?	COc1ccccc1NC(=O)CN1C(=O)C2(SCC(=O)N2c2ccc(C)c(C)c2)c2ccccc21 (stereo not drawn)
-11.9%	COc1cccc(NC(=O)C(CCSC)NC(=O)C2CCC(C)CC2)c1 (stereo not drawn)
0.5%	Cn1cnc(S(=O)(=O)N2CCCC(C(=O)Nc3ccc(F)cc3Cl)C2)c1 (stereo not drawn)
2.3%	CCCCNC(=O)C1CCCN(S(=O)(=O)CCC)C1 (stereo not drawn)
17.6%	CCOc1ccc(NC(=O)Cc2ccc(-n3c(C)nc4cccnc43)cc2)cc1
3.6%	Cc1cccc(C(=O)Nc2ccccc2SCc2cc(=O)c3cccc(C)c3[nH]2)c1
5.7%	CCOc1cccc(CNCCCSc2nnnn2C)c1
-11.9%	COc1ccc(C)cc1NC(=O)CN(c1ccccc1)S(=O)(=O)N(C)C
-3.4%	Cc1ccccc1OCC(=O)Nc1ccc2oc(-c3ccc(F)cc3)nc2c1
-3.7%	Cc1ccc(NC(=O)c2ccc3c(O)c(S(=O)(=O)c4ccc(Cl)cc4)c(=O)[nH]c3c2)cc1
-1.1%	COCCCNC(=O)c1ccc2c(c1)N(Cc1ccccc1)C(=O)c1ccccc1S2
2.5%	CCCCNC(=O)CC1N=C2c3ccccc3N=C(SCC(=O)NCc3ccccc3Cl)N2C1=O (stereo not drawn)
-2.1%	Cc1cccn2c(=O)cc(CSc3nnc(NC(=O)C(C)C)s3)nc12
-1.7%	Cc1cccc(C(=O)Nc2ccc(N3CCC(N4CCCCC4)CC3)c(C(=O)O)c2)c1
7.1%	Cc1ccc(Cl)cc1N1CCN(C2(c3ccccc3)C(=O)c3ccccc3C2=O)CC1
8.1%	CC(=O)c1ccc(NC(=O)CSc2nnc3ccc(-c4ccc(F)cc4)nn23)cc1
-2.8%	CSc1cccc(NC(=O)Cn2c3ncccc3c(=O)n2-c2ccc(C)cc2)c1
2.2%	COc1ccc(-c2noc(N3CCC(C(=O)Nc4ccc(F)cc4Cl)CC3)n2)cc1
20.8%	COc1ccc(CCNC(=O)CSc2n[nH]c(-c3ccccc3Cl)n2)cc1OC
14.0%	COc1ccc(Cn2ccc3nc(C)c(C(=O)Nc4ccc(OC)cc4)cc3c2=O)cc1
8.7%	COc1ccc(-c2cn3c(n2)sc2cc(C(=O)NCC(C)c4ccccc4)ccc23)cc1 (stereo not drawn)
0.7%	COc1ccc(CNC(=O)c2cccc(N3CCCS3(=O)=O)c2)cc1

Source: PubChem BioAssay

Not all compounds are listed; the hit share may differ from the screen's.
